Hsc70 ATP site – small molecules displacing fluorescent ligand from Hsc70 – biochemical, fluorescence polarization, primary screen (AID 568); Hsc70 fluorescence polarization, probe displacement; higher % means a stronger effect; strong numbers were not always called active; displacement, % at 20 µM, or IC50 in µM where a hit was titrated; 83,000 tested, under 10 active;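 active means displacement above 50% without optical interference and an IC50 on retest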;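 further: ATPase domain with a fluorescein-tagged ATP probe; 0% = vehicle and 100% = excess ADP; read after one hour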
MT1-MMP reporter – MT1-MMP gene expression reporter suppression – cell-based, luciferase reporter, luminescence (AID 618). MT1-MMP promoter luciferase reporter cells, luminescence. calls from a first round at 10 µM; hits with a dose series show EC50 in µM. 87,000 compounds, 0.62% hits;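 active means over half of the reporter light lost at 10 µM or EC50 under 50 µM; inactive means the rest and hits that failed the dose series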;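 further: actives suppress MT1-MMP promoter-driven transcription so potencies describe inhibitors; HT1080 fibrosarcoma cells; overnight exposure; toxic or luciferase-blocking compounds were not removed from the actives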
WNV protease inh – inhibitors of West Nile virus NS2B-NS3 protease; WNV NS2B-NS3 protease, fluorogenic substrate Ex360/Em465; hits give low values; P06935; 65,000 compounds, 0.18% hits; z-score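 (tested at a level between 10 and 100 µM)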;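 active means z-score at -3 or under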;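 further: score is relative to mean and spread of the compound wells of a plate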
Target sequence (P06935 1371-1501 limits assumed): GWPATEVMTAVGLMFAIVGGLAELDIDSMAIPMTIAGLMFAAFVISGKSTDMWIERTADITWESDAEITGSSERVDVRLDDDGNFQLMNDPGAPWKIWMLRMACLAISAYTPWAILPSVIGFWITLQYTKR
Target sequence (P06935 1502-1679 limits assumed): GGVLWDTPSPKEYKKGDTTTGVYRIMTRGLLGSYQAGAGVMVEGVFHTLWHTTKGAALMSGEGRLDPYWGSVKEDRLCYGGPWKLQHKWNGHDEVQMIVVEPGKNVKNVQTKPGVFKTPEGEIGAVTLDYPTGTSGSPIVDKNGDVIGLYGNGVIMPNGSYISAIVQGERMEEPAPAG
The depositor's hits bear a star; i = inactive; . = no result given. Only part of the results is shown. The share of hits here may be higher or lower than overall.

SMILES	Hsc70 ATP site	MT1-MMP reporter	WNV protease inh
Cc1ccc(N2C(=O)NC(=O)C3(Cc4ccccc4N4CCN(c5ccccc5)CC43)C2=O)cc1 (centres undefined)	1.2%	i	-0.44
CC(C)[C@H]1C(=O)N2CCC[C@H]2[C@]2(O)O[C@](NC(=O)[C@@H]3C=C4c5cccc6[nH]cc(c56)C[C@H]4N(C)C3)(C(C)C)C(=O)N12	65%	i	-0.43
C=CCn1c(O)c(C(C)=Nc2ccc(C(=O)OCC)cc2)c(=O)[nH]c1=O	-0.2%	i	-0.82
COc1ccc(CN2CCN(c3ccccc3F)CC2)cc1O	0.7%	i	.
CCN(CC)CCCN=Cc1c(O)n(CCc2ccc(F)cc2)c(=O)[nH]c1=O	0.8%	i	-0.76
CN(C)CC1CSCCC1(O)c1ccccc1Cl (centres undefined)	-0.2%	i	.
CN1CCC(N(C)Cc2cccnc2)CC1	-2.8%	i	.
Cc1cc(C)n2nc(C)[n+](C)c2n1	10%	i	-0.14
NCC(CC(=O)O)C1CCCCC1 (centres undefined)	-0.4%	i	.
O=c1[nH]c(=O)n(CCC2=CCCCC2)c(O)c1C=NCCCn1ccnc1	-5.1%	i	-0.44
C(#CCN1CCOCC1)COCC#Cc1ccccc1	-0.1%	i	-0.76
CCN(CC)CCCN=C(C)c1c(O)n(C2CCCCC2)c(=O)[nH]c1=O	2.2%	i	0.97
OC1(c2ccc(F)cc2)CC2CCC(C1)N2Cc1nnnn1C1CCCCC1 (centres undefined)	1.9%	i	-0.15
CC(NC1CCCCC1)C(O)C12CC3CC(CC(C3)C1)C2 (centres undefined)	-2.2%	i	.
O=C(O)Cn1cc(C(=O)c2ccccc2)c2ccccc21	4.7%	i	-0.18
CCCNc1oc(-c2cccc3ccccc23)nc1C#N	4.8%	i	-1.4
Cc1ccc2c(c1)C1CN(C)CCC1N2C(=O)Nc1cccc(C(F)(F)F)c1 (centres undefined)	10%	i	.
O=C(c1cc2c(s1)CCCCCC2)N1CCC2(CC1)OCCO2	3.9%	i	-0.88
C=Cn1ccnc1P(=S)(c1ccn(C)c1)c1nccn1C=C	-3.6%	i	-0.42
COCCOC(=O)C1=C(N)Oc2c(c(=O)oc3ccccc23)[C@@]12C(=O)Nc1ccccc12	9.1%	i	0.51
CCn1c(C(=O)N2CCC(C(=O)N3CCC4(CC3)OCCO4)CC2)cc2sccc21	-1.6%	i	0.04
CCOc1c(P(=S)(N(C)C)N(C)C)c(C)nn1-c1ccccc1	-2.9%	i	0.69
CCOC(=O)N(C)c1ccc(C(O)(C(=O)OCC)C(F)(F)F)cc1 (centres undefined)	-0.7%	i	0.08
Cc1cc(N)n(C2CCN(C)CC2)n1	-4.8%	i	-0.18
COc1ccc(N=C(C)c2c(O)n(C3CCCCC3)c(=O)[nH]c2=O)c(OC)c1	-14%	i	0.05
COC(=O)c1c(C)n(Cc2ccco2)c2ccc(O)cc12	-0.9%	i	.
CC(=O)OC1(c2ccc(C)cc2)CN2CCC1c1ccccc12 (centres undefined)	-3.1%	i	-0.08
Cc1cc(N2C(=O)CC(N3CCC(n4c(=O)[nH]c5ccccc54)CC3)C2=O)no1 (centres undefined)	4.2%	i	-0.61
CCCCn1c(N)c(C(=O)OCC2CCCO2)c2nc3ccccc3nc21 (centres undefined)	-2.2%	i	2.2
O=C(NCC(c1cccnc1)N1CCOCC1)Oc1ccccc1 (centres undefined)	-3.1%	i	-1.4
CCN1CCC2(CC1)NC(CO)(CO)CO2	-4.0%	i	.
CCN(CC)CCCN=Cc1c(O)n(-c2ccccc2F)c(=O)[nH]c1=O	1.3%	i	0.81
Cc1ccc(N(C)C(=O)Oc2cccc3ccc(C)nc23)cc1	1.7%	i	.
CCC(=NCCO)c1c(O)n(-c2ccc(Cl)cc2)c(=O)[nH]c1=O	8.2%	i	-0.22
COc1ccc2c(c1OC)C(=O)OC2c1c(O)n(Cc2ccc(F)cc2)c(=O)[nH]c1=O (centres undefined)	2.2%	i	-1
CCN1c2nc3c(C)cccn3c(=O)c2CC2(C(=O)N(C)C(=O)N(C)C2=O)C1C (centres undefined)	3.2%	i	0.1
CC12CN3CC(C)(CN(C1)C3c1cccs1)C2 (centres undefined)	0.4%	i	1.2
CC[N+]1(C)CCCC(OC(=O)C(O)(c2ccccc2)c2ccccc2)C1 (centres undefined)	-1.9%	i	0.38
CCC(=NCCOc1ccc(Cl)cc1)c1c(O)n(C)c(=O)n(C)c1=O	2.2%	i	-1.5
CCC1(CC)C(=O)NC(=NCCc2c[nH]c3ccccc23)NC1=O	2.8%	i	0.59
O=C(c1cccs1)C1CN2CCC1CC2 (centres undefined)	-0.9%	i	0.39
CC12CN3CC(C)(CN(C1)P3(=O)Oc1ccccc1)C2=O (centres undefined)	-4.2%	i	-0.4
CCC1CN(C)CCC1(OC(C)=O)c1ccccc1 (centres undefined)	-0.6%	i	.
CN1CCN(CCC(=O)OC2CC3CCC(C2)N3C)CC1 (centres undefined)	-4.4%	i	.
Cc1ccc(P(=S)(c2ccc(C)o2)N2CCOCC2)o1	-2.9%	i	-0.77
CCOc1ccc(-c2cc(C(=O)N3CCC4(CC3)OCCO4)c3ccccc3n2)cc1	-2.2%	i	-1.4
OC(COCc1ccc(Cl)cc1)CN1CC=C(c2ccccc2)CC1 (centres undefined)	-4.0%	i	-1.5
CC12CNCC(C)(CNC1)C2O (centres undefined)	10%	i	-0.24
O=c1c2ccccc2nc(-c2ccco2)n1-c1ccc(Br)cn1	1.8%	i	-0.14
CC(=O)Nc1ccc(OC(=O)c2ccccc2N)cc1	-1.3%	i	-0.22
C=CCN(c1ccc(C(=O)N(CC)CC)cc1)S(C)(=O)=O	5.5%	i	.
COc1ccccc1-n1c(-c2ccoc2)nc2ccccc2c1=O	6.9%	i	0.29
O=CC(Cl)P(=O)(N1CCCCC1)N1CCCCC1 (centres undefined)	2.5%	i	.
CCOCCCNC(=O)CN1C2CCC1CC(O)(c1ccc(OC)cc1)C2 (centres undefined)	-2.2%	i	-0.83
CC(=NCCCO)c1c(O)n(Cc2ccccc2)c(=O)[nH]c1=O	1.2%	i	-0.41
CCCC(C)C(=O)NC1CCSC1=O (centres undefined)	9.1%	i	1.2
CC(C)(C)C(O)C(Oc1ccc(Cl)cc1)n1cncn1 (centres undefined)	-3.0%	i	-0.52
C[N+]12CCC(CC1)C(C#N)(N1CCOCC1)C2 (centres undefined)	-2.2%	i	-0.49
Nc1c(C(=O)NCCc2ccccc2)c2nc3ccccc3nc2n1CCN1CCOCC1	3.9%	i	1.8
CCCCc1ccc2[nH]cc(CCN)c2c1	1.8%	i	0.24

An excerpt from above in order of count of non-hydrogen atoms, smallest number first.
SMILES	Hsc70 ATP site	MT1-MMP reporter	WNV protease inh
CN(C)CC1CSCCC1(O)c1ccccc1Cl (centres undefined)	-0.2%	i	.
O=C(O)Cn1cc(C(=O)c2ccccc2)c2ccccc21	4.7%	i	-0.18
C=Cn1ccnc1P(=S)(c1ccn(C)c1)c1nccn1C=C	-3.6%	i	-0.42
CC(=NCCCO)c1c(O)n(Cc2ccccc2)c(=O)[nH]c1=O	1.2%	i	-0.41
CCN(CC)CCCN=Cc1c(O)n(-c2ccccc2F)c(=O)[nH]c1=O	1.3%	i	0.81
Cc1ccc2c(c1)C1CN(C)CCC1N2C(=O)Nc1cccc(C(F)(F)F)c1 (centres undefined)	10%	i	.
CCN1c2nc3c(C)cccn3c(=O)c2CC2(C(=O)N(C)C(=O)N(C)C2=O)C1C (centres undefined)	3.2%	i	0.1

Further structures follow.
SMILES	Hsc70 ATP site	MT1-MMP reporter	WNV protease inh
CCOC(=O)CNC(=O)CSP(=S)(OCC)OCC	-0.7%	i	-0.4
CC(N)C(=O)c1ccco1 (centres undefined)	1.0%	i	-0.29
O=C(c1ccccc1F)c1cn(CC(=O)N2CCCC2)c2ccccc12	-1.3%	i	.
COc1ccc(-c2nc(CS(=O)CC(=O)N3CCC4(CC3)OCCO4)c(C)o2)cc1 (centres undefined)	-1.5%	i	-0.18
CCCCn1c(=O)c(C(=O)Nc2ccccc2S(N)(=O)=O)c(O)c2ccccc21	0.8%	i	0.29
CCOc1ccccc1C1SCC(=O)Nc2c1c(=O)[nH]n2C(CC)CC (centres undefined)	-4.1%	i	0.88
CCC(=Nc1ccc2c(c1)CCC2)c1c(O)n(C2CCCCC2)c(=O)[nH]c1=O	-4.2%	i	-0.37
CCC(=NCCCn1ccnc1)c1c(O)n(Cc2ccccc2)c(=O)[nH]c1=O	-7.1%	i	.
CCC(=O)c1cn(Cc2ccccc2C#N)c2ccccc12	3.0%	i	-1.3
Cc1ccc2c(c1)N(CCC(=O)N1CCC3(CC1)OCCO3)C(=O)CO2	-2.7%	i	1.4
Cc1cc(NC(=O)COC(=O)c2c(C)nn(Cc3ccccc3)c2C)no1	-4.1%	i	.
COc1ccc2c(c1)CC1(CN2C)C(=O)NC(=O)N(CCc2ccccc2)C1=O (centres undefined)	-0.1%	i	-0.6
Cc1oc(-c2ccccc2F)nc1CS(=O)CC(=O)N1CCC2(CC1)OCCO2 (centres undefined)	0.9%	i	-0.46
O=C(c1cc(S(=O)(=O)N2CCOCC2)ccc1F)N1CCC2(CC1)OCCO2	-0.1%	i	-1.4
N#Cc1cc2c(nc1SCC(=O)Nc1cc(Cl)cc(Cl)c1)C1CCN2CC1	1.6%	i	.
Nc1c(C(=O)NCc2ccco2)c2nc3ccccc3nc2n1CCN1CCOCC1	-2.2%	i	.
CSC(=Nc1ccccc1)c1c(O)n(C)c(=O)n(C)c1=O	-2.3%	i	0.4
CC(=NCCN1CCOCC1)c1c(O)n(Cc2ccccc2)c(=O)[nH]c1=O	-2.4%	i	.
Cn1c(O)c(C=NCCOc2ccc(Cl)cc2)c(=O)n(C)c1=O	-2.5%	i	0.77
CCCCOCCCn1c(N)c(C(=O)OC(C)COC)c2nc3ccccc3nc21 (centres undefined)	-1.4%	i	1.7
Cc1cccc(-n2c(-c3ccco3)nc3ccccc3c2=O)n1	2.1%	i	2.8
CC(C)C12CN3CCN(CC(C3)/C1=N\O)C2	1.2%	i	.
CN(C)CP(=O)(O)CN(C)C=O	0.3%	i	-1.2
C#CCOCOCC#CCN(CC)CC	0.6%	i	.
S=C(c1ccc(Cl)cc1)N1CCOCC1	0.9%	i	-1.1
CCOC(=O)c1[nH]c(C)c(C(=O)N2CCC3(CC2)OCCO3)c1C	-6.4%	i	-0.16
CCOC(=O)C(C)Oc1cc(C)cc2oc(=O)c3c(c12)CCCC3 (centres undefined)	-1.5%	i	-0.28
CN1/C(=C\C=C\C2=[N+](C)c3ccc4ccccc4c3C2(C)C)C(C)(C)c2ccccc21	-55%	4.7µM*	.
c1ccc2c(c1)CNc1ccccc1O2	5.5%	i	-1
CCCCCCC(N)CC(=O)O (centres undefined)	-3.9%	i	-0.04

In another format: results already given
CC(=NCCN1CCOCC1)c1c(O)n(Cc2ccccc2)c(=O)[nH]c1=O
  Hsc70 ATP site: -2.4%
  MT1-MMP reporter: i
  WNV protease inh: .
Cn1c(O)c(C=NCCOc2ccc(Cl)cc2)c(=O)n(C)c1=O
  Hsc70 ATP site: -2.5%
  MT1-MMP reporter: i
  WNV protease inh: 0.77
CCCCOCCCn1c(N)c(C(=O)OC(C)COC)c2nc3ccccc3nc21 (centres undefined)
  Hsc70 ATP site: -1.4%
  MT1-MMP reporter: i
  WNV protease inh: 1.7

Next results.
SMILES	Hsc70 ATP site	MT1-MMP reporter	WNV protease inh
C=C(C)CSc1nnc([C@@H](N)Cc2c[nH]c3ccccc23)o1	-4.6%	i	-0.79
CCC12CN3CC(CC)(CN(C1)C3c1cccnc1)C2=O (centres undefined)	2.7%	i	.
CCCCNC(=O)c1c(N)n(CCCOC)c2nc3ccccc3nc12	-8.4%	i	1.1
CCN(CC)CCOC(=O)c1cc2cc(COC)ccc2o1	-7.1%	i	-1.3
CN(C)P(=O)(C(Cl)=C(N1CCCCC1)N1CCCCC1)N(C)C	-11%	i	0.88
CCOC(=O)c1ccc(N2C(=O)CC(N3CCC(C#N)(c4ccccc4)CC3)C2=O)cc1 (centres undefined)	-0.2%	i	0.41
Cc1ccc(Cl)cc1-n1c(O)c(C=NCCCN2CCOCC2)c(=O)[nH]c1=O	1.3%	i	0.42
O=C(CCN1CCOCC1)NCC(=O)Nc1ccc(Br)cc1C(=O)c1ccccc1	-6.4%	i	-1.6
COc1cc(/C=N/n2cnnc2)ccc1OC(=O)N(C)C	-2.2%	i	-1.1
Nc1ccc(S(=O)(=O)N2CC3CC(C2)c2cccc(=O)n2C3)cc1 (centres undefined)	-3.1%	i	0.84
Cc1ccc(-c2nc(CS(=O)CC(=O)N3CCC4(CC3)OCCO4)c(C)o2)cc1 (centres undefined)	-4.9%	i	-1.1
O=c1[nH]c(=O)n(Cc2ccc(F)cc2)c(O)c1C=NCC1CCCO1 (centres undefined)	-5.6%	i	1.6
O=c1[nH]c2ccccc2c(=O)n1-c1cccc(Cl)c1	-3.0%	i	1.1
CCCCCn1c(=O)c(C(=O)NCc2ccccn2)c(O)c2ccccc21	2.2%	i	-0.75
CCC(=NCCCN(CC)CC)c1c(O)n(C2CCCCC2)c(=O)[nH]c1=O	0.3%	i	-0.07
CCCCCCN=C(C)c1c(O)n(CCCC)c(=O)[nH]c1=O	-14%	i	0.59
COC(=O)C1=C(N)Oc2c(c(=O)oc3ccccc23)C1c1cccnc1 (centres undefined)	3.6%	i	.
O=C(COc1ccccc1)N1CCN(C2CCCC2)CC1	6.8%	i	0.15
O=C(c1ccccc1)c1cn(CC(=O)N2CCCC2)c2ccccc12	3.0%	i	-1.1

Assay outcomes: PubChem, several laboratories
